MITF inhib: MITF inhibition | TRPM1 promoter luciferase, luminescence, 24 h | inhibition, % (concentration not given with the values) | hit rate 0.28% among 37,000 | AID 2240;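 active = most replicates at 85% or more, or half of them and the mean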;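 note: human melanocyte line stably carrying TRPM1 promoter luciferase reporter; 0% = vehicle wells and 100% = a positive control; the first replicate is given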
YB-1 expression: YB-1 expression inhibition; U2OS, qRT-PCR YB-1 vs CDIP delta delta Cp, 16 h; hits give high values; zero = DMSO, each unit about twofold; delta delta Cp (YB-1 minus CDIP) (no concentration beside the values); AID 434959; hit rate 0.37% among 30,000;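 active = delta delta Cp rounded down to an integer at or above 3, about 3 SD of DMSO wells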;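 note: higher means less YB-1 transcript or more CDIP transcript relative to DMSO; stock transfer was 100 nL into about 100 µL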
* marks the source's active call; other numbers are inactive results; . = no result given. These rows are one share of the data, so the mix of outcomes need not match the whole.

SMILES	MITF inhib	YB-1 expression
CN1CCC(OC(=O)COc2ccc(F)cc2)CC1	-5.0	.
CCN1CCN(S(=O)(=O)c2cc(OCC(N)=O)c(C)cc2Cl)CC1	-3.9	.
Cc1cc(C(=O)CSc2ncn[nH]2)c(C)n1-c1cc(Cl)ccc1Cl	18.9	.
CCOc1c(Cl)cc(CNCc2ccccn2)cc1OC	-23.4	.
Cc1ccc(-n2c(=O)c3c4c(sc3n3c(SCC(=O)c5ccc(F)cc5)nnc23)CCCC4)cc1	-3.4	.
Cn1c(SCC(=O)Nc2ccccc2Cl)nnc1-c1cccc([N+](=O)[O-])c1	-2.2	.
COc1ccc(NC(=O)N(C)C[C@H]2OCc3cnnn3CCCC(=O)N([C@@H](C)CO)C[C@H]2C)c(OC)c1	.	0.424
C[C@H](CO)N1C[C@H](C)[C@@H](CN(C)Cc2ccc3cccnc3c2)OCc2cnnn2CCCC1=O	.	0.609
COc1cccc(-c2cnc3c(c2)C(=O)N([C@H](C)CO)C[C@H](C)[C@H](CN(C)C(=O)NC2CCCCC2)O3)c1	.	0.692
O=S(=O)(N[C@@H]1CCN(Cc2ccc(OCCO)cc2)C1)c1ccc(Cl)c(Cl)c1	.	0.0041
CCOc1cc(/C=N/NC(=O)CCCCCCC(=O)OC)ccc1O	.	-0.197
N#Cc1ccc(/C=N/NC(=O)CCCCCCC(=O)O)cc1	.	-0.177
CCOC(=O)N(C)C[C@H]1OCc2cn(nn2)CCCC(=O)N([C@@H](C)CO)C[C@H]1C	.	0.0871
C=CCOC(=O)[C@H]1[C@@H]2C(=O)O[C@@H](c3ccccc3)[C@@H](c3ccccc3)N2[C@@H](c2ccc(OCCOC(=O)[C@@H]3C[C@@H]4C(=O)N[C@@H](Cc5ccccc5)C(=O)N4[C@@H]3c3cccc(OCCO)c3)cc2)[C@]12C(=O)Nc1ccc(I)cc12	.	-0.385
C[C@H]1CN([C@@H](C)CO)C(=O)CCCn2cc(nn2)CO[C@H]1CN(C)Cc1cccnc1	.	0.583

One compound at a time (already shown). Values in the order: MITF inhib	YB-1 expression
Listed for C[C@H](CO)N1C[C@H](C)[C@@H](CN(C)Cc2ccc3cccnc3c2)OCc2cnnn2CCCC1=O → .	0.609
Listed for CCOc1cc(/C=N/NC(=O)CCCCCCC(=O)OC)ccc1O → .	-0.197
Listed for COc1cccc(-c2cnc3c(c2)C(=O)N([C@H](C)CO)C[C@H](C)[C@H](CN(C)C(=O)NC2CCCCC2)O3)c1 → .	0.692

Further records follow.
SMILES	MITF inhib	YB-1 expression
C[C@H]1CN([C@@H](C)CO)C(=O)CCCn2nncc2CO[C@H]1CN(C)C(=O)c1ccccc1	.	-0.332
O=C(NO)c1ccc(C(=O)N/N=C/c2ccccn2)cc1	.	0.399
C[C@H](CO)N1C[C@H](C)[C@H](CN(C)Cc2ccccc2C(F)(F)F)OCc2cnnn2CCCC1=O	.	0.134
CC(C)=CCC[C@H](C)C/C=N/NC(=O)CCCCCC(=O)O	.	-0.522
CCOc1cc(/C=N/NC(=O)c2cccc(C(=O)NO)c2)ccc1O	.	-0.00594
O=C(CCCCCCC(=O)Nc1ccccc1O)N/N=C/c1cccc(OCCO)c1	.	-0.197
C[C@H](CO)N1C[C@H](C)[C@H](CN(C)C(=O)C2CCCCC2)OCc2cnnn2CCCC1=O	.	0.176
C[C@H]1CN([C@@H](C)CO)C(=O)CCCn2nncc2CO[C@@H]1CN(C)C(=O)c1ccncc1	.	0.11
O=C1O[C@H](c2ccccc2)[C@H](c2ccccc2)N2[C@H]1[C@@H](C(=O)O)[C@]1(C(=O)Nc3ccc(C#CC4(O)CCCCCC4)cc31)[C@H]2c1ccc(O)cc1	.	0.257
Cc1nc(S(=O)(=O)N[C@@H]2CCN(Cc3ccc(OCCO)cc3)C2)cn1C	.	0.118
COc1ccc([Si](C)(C)[C@@H]2[C@@H](CCO)O[C@]3(C(=O)N(Cc4cccc(N5CCCCC5=O)c4)c4ccccc43)[C@H]2C)cc1	.	-0.0756
COc1cccc(S(=O)(=O)N(C)C[C@@H]2Oc3ncc(-c4cccc(F)c4)cc3C(=O)N([C@H](C)CO)C[C@@H]2C)c1	.	0.215
C[C@H]1CN([C@@H](C)CO)C(=O)CCCn2nncc2CO[C@H]1CN(C)Cc1ccc2c(c1)OCCO2	.	0.0962
C[C@H]1CN([C@@H](C)CO)C(=O)CCCn2nncc2CO[C@@H]1CN(C)Cc1ccncc1	.	-0.00675
C[C@@H]1CN([C@@H](C)CO)C(=O)CCCn2cc(nn2)CO[C@@H]1CN(C)C(=O)C1CC1	.	-0.254
Cc1cccc(CN(C)C[C@@H]2OCc3cnnn3CCCC(=O)N([C@H](C)CO)C[C@H]2C)c1	.	-0.278
NC(=O)COc1ccccc1/C=N/NC(=O)CCCCCCC(=O)Nc1ccccc1O	.	-0.0954
C[C@H](CO)N1C[C@H](C)[C@H](CN(C)S(C)(=O)=O)Oc2ncc(C#CC(C)(C)O)cc2C1=O	.	0.196
C[C@H]1CN([C@@H](C)CO)C(=O)CCCn2nncc2CO[C@@H]1CN(C)C(=O)NC1CCCCC1	.	0.269
C[C@H](CO)N1C[C@H](C)[C@H](CN(C)CC2CCCCC2)OCc2cn(nn2)CCCC1=O	.	-0.504
C[C@@H]1CN([C@@H](C)CO)C(=O)CCCn2cc(nn2)CO[C@@H]1CN(C)S(=O)(=O)c1ccc2ccccc2c1	.	0.369
C[C@H](CO)N1C[C@H](C)[C@H](CN(C)C(=O)Nc2ccccc2C(F)(F)F)OCc2cnnn2CCCC1=O	.	0.297
COc1ccc(/C=N/NC(=O)c2ccccn2)cc1O	.	-0.277
O=C(N/N=C/C=C/c1ccccc1)c1ccccn1	.	0.285
COc1ccc(CN(C)C[C@@H]2OCc3cn(nn3)CCCC(=O)N([C@H](C)CO)C[C@@H]2C)cc1	.	-0.221
C=CCNC(=O)[C@H]1[C@@H]2C(=O)O[C@@H](c3ccccc3)[C@@H](c3ccccc3)N2[C@@H](c2ccc(O)cc2)[C@]12C(=O)Nc1ccc(C#CCCO)cc12	.	0.111
C[C@H]1CN([C@@H](C)CO)C(=O)CCCn2cc(nn2)CO[C@@H]1CN(C)Cc1cccc(C(F)(F)F)c1	.	0.241
C[C@H](CO)N1C[C@H](C)[C@@H](CN(C)Cc2ccc(C(=O)Nc3ccccc3N)cc2)Oc2ccc(NC(=O)Nc3cccc4ccccc34)cc2C1=O	.	-0.473
C[C@H](CO)N1C[C@H](C)[C@@H](CN(C)C(=O)Nc2ccc(-c3cccs3)cc2)OCc2cnnn2CCCC1=O	.	-0.144
NC(=O)[C@H]1[C@@H]2C(=O)O[C@@H](c3ccccc3)[C@@H](c3ccccc3)N2[C@@H](c2ccccc2OCCO)[C@]12C(=O)Nc1ccccc12	.	-0.308
COc1cc2c(cc1O)C=[N+](Cc1cccc(OC(F)(F)F)c1)CC2	.	0.449
C[C@H](CO)N1C[C@H](C)[C@@H](CN(C)C(=O)c2ccccc2)OCc2cnnn2CCCC1=O	.	-0.00656
C[C@@H]1CN([C@H](C)CO)C(=O)CCCn2cc(nn2)CO[C@@H]1CN(C)Cc1cccc2c1OCCCO2	.	-0.376
O=C(O)C1=C[C@@H](c2ccc3c(c2)OCO3)C[C@@H](OCc2ccc(CO)cc2)O1	.	-0.181
CN(C)CCCNC(=O)[C@@]1(c2ccc([N+](=O)[O-])cc2)CC(=O)N(CC23CC4CC(CC(C4)C2)C3)[C@@H]1c1ccc(CO)cc1	.	-0.042
COc1ccc(/C=N/NC(=O)CCCCCC(=O)O)c(O)c1	.	-0.258
COc1cc(/C=N/NC(=O)CCCCCC(=O)Nc2ccccc2O)c(Br)cc1O	.	0.193
COCCOC(=O)N1C(=O)[C@@]2(c3cc(C#Cc4ccc(OC)cc4)ccc31)[C@H](c1ccccc1OCCO)N1[C@H](c3ccccc3)[C@H](c3ccccc3)OC(=O)[C@H]1[C@@H]2C(=O)N1CCc2cc(OC)c(OC)cc2C1	.	0.0525
C[C@@H]1CN([C@H](C)CO)C(=O)CCCn2nncc2CO[C@H]1CN(C)Cc1ccc(C(F)(F)F)cc1	.	-0.17
C[C@@H]1CN([C@@H](C)CO)C(=O)CCCn2nncc2CO[C@H]1CN(C)S(=O)(=O)c1ccc(Oc2ccccc2)nc1	.	-0.327
O=C(O)CCCCCCC(=O)N/N=C/c1cccc2ccccc12	.	0.169
Cc1nnc(Sc2ccc(/C=N/NC(=O)c3ccc(C(=O)NO)cc3)o2)n1C	.	0.312
CCCCN(CCCC)c1ccc(/C=N/NC(=O)CCCCCCC(=O)Nc2ccccc2O)cc1	.	0.241
Cc1noc(C)c1NC(=O)N(C)C[C@@H]1OCc2cn(nn2)CCCC(=O)N([C@@H](C)CO)C[C@H]1C	.	-0.469
O=C(CCCCCCC(=O)Nc1ccccc1O)N/N=C/c1ccc(Br)o1	.	0.0956
O=C(CCCCC(=O)N/N=C/c1ccc(F)c(Oc2ccccc2)c1)NO	.	0.367
C[C@@H]1CN([C@H](C)CO)C(=O)CCCn2nncc2CO[C@H]1CN(C)S(=O)(=O)c1cccc(F)c1	.	0.0864
C=CCN1Cc2ccccc2[C@@H]2OC(c3ccc(OCCCO)cc3)=N[C@]2(CC=C)C1=O	.	0.324
NC(=O)[C@@H]1[C@H]2C(=O)O[C@H](c3ccccc3)[C@H](c3ccccc3)N2[C@H](c2ccc(O)cc2)[C@@]12C(=O)Nc1ccccc12	.	-0.28
C[C@@H]1CN([C@H](C)CO)C(=O)CCCn2nncc2CO[C@@H]1CN(C)Cc1cccc(C(=O)O)c1	.	-0.161
C[C@@H]1CN([C@H](C)CO)C(=O)CCCn2cc(nn2)CO[C@@H]1CN(C)C(=O)c1ccccc1	.	-0.324
C[C@H](CO)N1C[C@H](C)[C@H](CN(C)C(=O)NC2CCCCC2)Oc2ncc(C#Cc3ccc(C(F)(F)F)cc3)cc2C1=O	.	-0.479
C[C@H]1CN([C@@H](C)CO)C(=O)CCCn2nncc2CO[C@H]1CN(C)Cc1ccc(-c2ccccc2)cc1	.	-0.403
O=C(O)CCCCCC(=O)N/N=C/c1c(O)ccc2ccccc12	.	-0.172
C[C@H](CO)N1C[C@H](C)[C@H](CN(C)Cc2ccccc2)Oc2ncc(Br)cc2C1=O	.	0.0995
C=CCNC(=O)[C@H]1[C@@H]2C(=O)O[C@@H](c3ccccc3)[C@@H](c3ccccc3)N2[C@@H](c2ccc(O)cc2)[C@]12C(=O)N(C(=O)OCCOC)c1ccccc12	.	0.103

Structural class, the entries above with fluorine
SMILES	MITF inhib	YB-1 expression
CN1CCC(OC(=O)COc2ccc(F)cc2)CC1	-5.0	.
Cc1ccc(-n2c(=O)c3c4c(sc3n3c(SCC(=O)c5ccc(F)cc5)nnc23)CCCC4)cc1	-3.4	.
C[C@H](CO)N1C[C@H](C)[C@H](CN(C)Cc2ccccc2C(F)(F)F)OCc2cnnn2CCCC1=O	.	0.134
COc1cccc(S(=O)(=O)N(C)C[C@@H]2Oc3ncc(-c4cccc(F)c4)cc3C(=O)N([C@H](C)CO)C[C@@H]2C)c1	.	0.215
C[C@H](CO)N1C[C@H](C)[C@H](CN(C)C(=O)Nc2ccccc2C(F)(F)F)OCc2cnnn2CCCC1=O	.	0.297
C[C@H]1CN([C@@H](C)CO)C(=O)CCCn2cc(nn2)CO[C@@H]1CN(C)Cc1cccc(C(F)(F)F)c1	.	0.241
COc1cc2c(cc1O)C=[N+](Cc1cccc(OC(F)(F)F)c1)CC2	.	0.449
C[C@@H]1CN([C@H](C)CO)C(=O)CCCn2nncc2CO[C@H]1CN(C)Cc1ccc(C(F)(F)F)cc1	.	-0.17
O=C(CCCCC(=O)N/N=C/c1ccc(F)c(Oc2ccccc2)c1)NO	.	0.367
C[C@@H]1CN([C@H](C)CO)C(=O)CCCn2nncc2CO[C@H]1CN(C)S(=O)(=O)c1cccc(F)c1	.	0.0864
C[C@H](CO)N1C[C@H](C)[C@H](CN(C)C(=O)NC2CCCCC2)Oc2ncc(C#Cc3ccc(C(F)(F)F)cc3)cc2C1=O	.	-0.479

Compound activity as filed in PubChem BioAssay.
